Assay outcomes as filed in PubChem.
VDR inh – vitamin D3 receptor (human) inhibition | VDR-SRC2-3 peptide fluorescence polarization, 2 h | 0.93% of 400,000 active | AID 504847 | Potency, µM, for inactives: max response, negative = inhibition, hits mostly inhibitors | P11473; active means well fitted inhibition curve with a large enough effect; inconclusive means small, poorly fitted or top-dose-only effect, or another doubt; inactive means no such curve, though single readings can be large or run the other way; further: series mostly up to about 120 µM
Target sequence (P11473 whole entry, looked up): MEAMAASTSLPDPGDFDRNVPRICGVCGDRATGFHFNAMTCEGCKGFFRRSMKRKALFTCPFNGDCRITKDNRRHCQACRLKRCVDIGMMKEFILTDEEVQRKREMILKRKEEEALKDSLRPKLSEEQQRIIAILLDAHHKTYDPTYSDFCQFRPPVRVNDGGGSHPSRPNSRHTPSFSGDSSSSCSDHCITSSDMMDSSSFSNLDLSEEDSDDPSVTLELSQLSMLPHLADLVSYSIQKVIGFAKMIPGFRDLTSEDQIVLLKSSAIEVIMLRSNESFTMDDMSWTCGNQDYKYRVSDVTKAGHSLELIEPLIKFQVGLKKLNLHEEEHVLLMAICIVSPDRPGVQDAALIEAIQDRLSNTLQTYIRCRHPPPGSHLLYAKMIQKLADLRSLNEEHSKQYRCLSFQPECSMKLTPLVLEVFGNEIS
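VDR–SRC2-3 interaction, FP format. Cmpds 23 nl via pintool, brief spin, 2 h ambient incubation.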
* = called active by the depositor; ? = inconclusive; & = joins results of further samples. On the % scale 0 is the no-effect control and ±100 the full control effect; potency means the concentration at half of the fitted maximal effect. A portion of the library. The share of hits here may be higher or lower than overall.

structure	VDR inh
NC(=O)C1CCCN(C(=O)CCCNC(=O)c2ccc(Cl)cc2)C1 (stereo not given)	-15%
Cc1cccc(NC(=O)/C(C#N)=C/c2ccc(Cl)cc2)n1	-14%
CC1CCc2nc3ncn(Cc4ccccc4F)c(=O)c3cc2C1 (stereo not given)	-1%
O=C(OCCN1C(=O)c2ccccc2C1=O)c1cc2ccccc2o1	-3%
CCC(CO)Oc1cc(NC(=O)c2cccc3ccccc23)c2ncn(C(C)C)c2c1 (stereo not given)	21%
Nc1cccc(Nc2ccccc2)c1	9%
O=C1NCCN(CC2CCN(CCc3ccc(Cl)c(Cl)c3)CC2)C1=O	6%
CN(CC(=O)Nc1ccc(N2CCOCC2)cc1)C(=O)C1CCCC1	13%
Cc1noc(C)c1COc1cccc(C(=O)NC(C)(C)C)c1	-28%
CCCCCNC(=O)Cc1cc(=O)[nH]c(=O)[nH]1	-11%
CC1(C)c2[nH]c3ccccc3c2C[C@H]2C(=O)N(Cc3cccc(F)c3)C(=O)N21	15%
N#CCc1nc(CSc2nc3ccccc3s2)cs1	15%
CC1(C)C(=O)NCCN1C(=O)CSc1nccc(-c2ccc(Br)cc2)n1	3%
O=C(CCc1nc2ccccc2c(=O)[nH]1)OCC(=O)c1cccc(Cl)c1	10%
CCOc1ccc(S(=O)(=O)NCC(c2ccc(N(C)C)cc2)N2CCc3ccccc32)cc1 (stereo not given)	-1%
COc1ccc(/C=N/NS(=O)(=O)c2ccc(F)cc2)cc1COc1cc(F)ccc1[N+](=O)[O-]	2%
Cc1ccc2cc(C3CC(c4ccco4)=NN3S(=O)(=O)c3ccccc3)c(Cl)nc2c1 (stereo not given)	-2%
CCCCCCNC(=O)Cc1ccc(Br)cc1	3%
COc1ccc(-c2noc(CSCC(=O)Nc3cccc(C(F)(F)F)c3)n2)cc1OC	1%
O=C(NC1CCCCC1)c1cc(C(=O)c2ccccc2Br)c[nH]1	6%
CN1c2ccc([N+](=O)[O-])cc2N(C)C1(C)c1ccccc1 (stereo not given)	9%
COc1ccc(C(C)(C)C)cc1NC(=O)C1CC=CCC1C(=O)O (stereo not given)	3%
O=C(O)Cc1sc(Nc2ccccc2Cl)nc1-c1ccccc1	-17%
O=C(NCCSCc1ccccc1)c1cc(S(=O)(=O)N2CCOCC2)ccc1F	6%
O=C(Nc1nccs1)c1cccnc1	13%
COCCN1C(=O)c2ccc(C(=O)Nc3nccs3)cc2C1=O	-10%
O=C(c1ccc(S(=O)(=O)NCc2ccco2)cc1)N1CCN(Cc2ccccc2)CC1	?
CC(=O)N1CCN(Cc2nc(-c3cccc(Cl)c3)no2)CC1	-8%
O=C(Cn1nc2c(cc1=O)CCCC2)NCc1ccc(Cl)cc1	-5%
O=S(=O)(c1ccc(Cl)nc1)N1CCC(Cc2ccccc2)CC1	-9%
C[C@@H]1NC(=O)[C@H](CCC(N)=O)NC(=O)c2cc([N+](=O)[O-])cc(I)c2NCCC[C@@H](C(N)=O)NC1=O	-5%
OC(c1ccccn1)c1c[nH]c2ccccc12 (stereo not given)	-15%
C=CCn1c(SCC(C)=O)nc2scc(-c3ccc(C)o3)c2c1=O	-12%
COC(=O)c1ccc(C(=O)N2CCCC(Nc3ccc(C(C)C)cc3)C2)cc1 (stereo not given)	6%
COc1ccc(C2/C(=C(\O)c3ccc(OC)c(Cl)c3)C(=O)C(=O)N2CCN(C)C)cc1 (stereo not given)	4%
CCc1nn(CC(=O)NCCCN(CC(C)C)CC(C)C)c(=O)c2cc3sc(C)cc3n12	4%

The last 6 entries of the part above open the next one.
structure	VDR inh
C[C@@H]1NC(=O)[C@H](CCC(N)=O)NC(=O)c2cc([N+](=O)[O-])cc(I)c2NCCC[C@@H](C(N)=O)NC1=O	-5%
OC(c1ccccn1)c1c[nH]c2ccccc12 (stereo not given)	-15%
C=CCn1c(SCC(C)=O)nc2scc(-c3ccc(C)o3)c2c1=O	-12%
COC(=O)c1ccc(C(=O)N2CCCC(Nc3ccc(C(C)C)cc3)C2)cc1 (stereo not given)	6%
COc1ccc(C2/C(=C(\O)c3ccc(OC)c(Cl)c3)C(=O)C(=O)N2CCN(C)C)cc1 (stereo not given)	4%
CCc1nn(CC(=O)NCCCN(CC(C)C)CC(C)C)c(=O)c2cc3sc(C)cc3n12	4%
CC(C)OCCCN(C)C1CCN(S(=O)(=O)c2ccc(-c3ccc(=O)[nH]n3)s2)CC1	-15%
N#Cc1ccccc1OCCn1cncn1	-4%
Cn1cc(C(=O)C(=O)N2CCCc3ccccc32)c2ccccc21	-17%
CN1CCN(c2ccc(C(=O)c3ccc(F)cc3)cc2)CC1	-19%
O=C(C1=C[C@@H]2[C@H]3C(=O)N(c4ccc(Cl)cc4)C(=O)[C@H]3[C@@H](C(=O)c3ccc(Cl)cc3)N2C=C1)c1ccccc1	-5%
CCCCN(CCCC)CCNC(=O)CN1C(=O)CSc2ccc(S(=O)(=O)N3CCCCC3)cc21	-10%&-10%
Cc1cc(C)c(C)c(S(=O)(=O)N2CCN(C(=O)c3ccc4c(=O)n5c(nc4c3)CCC5)CC2)c1C	-16%
O=C(CCn1nc(-c2ccccc2)c2ccccc2c1=O)Nc1ccccc1	-6%
COc1cc(OC)cc(C(=O)NNC(=O)CCc2ccccc2)c1	-2%
CC(=O)c1c(C)[nH]c(C(=O)N2CCc3ccccc32)c1C	-12%
C/C(Cn1nc([N+](=O)[O-])cc1C)=N\NC(=O)COc1ccc(Cl)cc1Cl	-11%
CCOC(=O)Cn1c(=O)oc2cc(S(=O)(=O)N3CCCc4ccccc43)ccc21	-24%
Cc1cccc(CNc2ncncc2-c2ccccc2C(F)(F)F)c1	?
CCCn1c(SCC(=O)Nc2c(C)cccc2C)nnc1C(C)C	3%
COC(=O)c1cccnc1NC(=S)NC(C)C	16%
O=[N+]([O-])c1ccc(C(O)CN2CCN(Cc3ccccc3)CC2)cc1 (stereo not given)	-1%
CCOc1nc(C)cc(C)c1S(=O)(=O)c1ccc(Cl)cc1	10%
CCn1c(COc2ccc(=O)n(-c3ccccc3)n2)nnc1SCc1ccc(C)cc1	2%
COc1ccc(N2CC(NC(=O)N(C)CCC#N)CC2=O)cc1 (stereo not given)	-5%
CC(Oc1ccc2c(c1)oc(=O)c1ccccc12)C(=O)NCC1CCC(C(=O)O)CC1 (stereo not given)	23%
Cn1c(SCc2n[nH]c(=S)n2-c2ccccc2)nnc1-c1ccccc1	-1%
CC(C)N1CCC(N2CCN(Cc3ccc(-c4ccc(Cl)cc4)o3)CC2CCO)CC1 (stereo not given)	-16%
Cc1ccc2oc(C(=O)NCCC3CCCCO3)c(C)c2c1 (stereo not given)	-2%
COC(=O)c1sc2nc(-c3ccccc3)c3c(c2c1N)CCCC3	-4%
O=C1[C@H]2[C@@H](c3ccc(F)cc3)N3C(=O)N(c4cccc(Br)c4)C(=O)[C@@]3(Cc3ccccc3)[C@H]2C(=O)N1C1CCCCC1	-13%
COc1ccc(OCCNC(=O)/C=C/c2ccc([N+](=O)[O-])cc2)cc1	3%
CC(C)C[C@H](NC(=O)OC(C)(C)C)c1nnc(SCc2cccc(F)c2)o1	8%
Cc1nn(-c2cc(N3CCOCC3)ccc2N)c(=O)c2ccccc12	4%
O=C(C1CC1)N1CCc2cc(S(=O)(=O)NCCCN3CCCCC3)ccc21	-8%
CN(C)C(=O)CSc1nnc2sc3ccccc3n12	-10%
O=C(Nc1ccc(S(=O)(=O)NC2CCCCC2)cc1)c1ccc(Br)o1	2%
Oc1ccc(/C=N/N2CCN(c3ccccn3)CC2)cc1	8%
CCc1ccc(-c2nn(CC(=O)NCc3ccccc3)c3c2cnc2ccc(C)cc23)cc1	9%
CCN(Cc1nc2cc(Cl)ccc2c(=O)[nH]1)C(=O)c1nn(C)c(=O)c2ccccc12	8%
Oc1ccc(C[C@H]2CNCCN2CCc2cc(C(F)(F)F)cc(C(F)(F)F)c2)cc1	-8%
COc1ccc(N2CC(C(=O)Nc3cc(C)on3)CC2=O)cc1 (stereo not given)	3%

The closing two entries of the part before lead into the next.
structure	VDR inh
Oc1ccc(C[C@H]2CNCCN2CCc2cc(C(F)(F)F)cc(C(F)(F)F)c2)cc1	-8%
COc1ccc(N2CC(C(=O)Nc3cc(C)on3)CC2=O)cc1 (stereo not given)	3%
COc1ccccc1C(O)(C(=O)NN(C)c1ccccc1)c1ccccc1OC	-3%
COC(=O)c1ccc(Cn2cnc3c(cnn3-c3ccc(Cl)cc3)c2=O)o1	6%
COc1ccccc1N1CCN(C2CC(=O)N(c3cccc(Br)c3)C2=O)CC1 (stereo not given)	-2%
O=C(c1ccccc1)c1ccc(N2CCN(C(=O)c3cccc(F)c3F)CC2)c(F)c1	9%
Cn1c2ccccc2c2ncn(Cc3ccco3)c(=O)c21	-3%
CC1COC2C(O1)N(S(C)(=O)=O)CCN2S(C)(=O)=O (stereo not given)	14%
COCCCNc1nc2c(-c3cccc(C(F)(F)F)c3)nnn2c2ccccc12	-12%
O=C(NC(=S)Nc1ccc2[nH]c(=O)[nH]c2c1)c1ccccc1[N+](=O)[O-]	-1%
CCOc1ccc(C2(C)CC(=O)N(C)C2=O)cc1 (stereo not given)	-14%
COc1ccc2[nH]cc(CCNC(=O)C3CCCO3)c2c1 (stereo not given)	-24%
Cc1cc(C)c(C)c(OCCNCc2ccccc2)c1	3%
COc1ccc(CNc2nc3ccccc3n2Cc2ccc(C)cc2)cc1OC	2%
O=C(N[C@@H](Cc1ccc(Br)cc1)C(=O)O)OCC1c2ccccc2-c2ccccc21	-11%
C/C(N)=C(/C#N)C(=O)CSc1nnc(Nc2cccc(C)c2C)s1	18%&12%
Cc1ccccc1NC(=O)C(C)OC(=O)CNS(=O)(=O)c1ccc(C#N)cc1 (stereo not given)	-20%
COc1ccc(S(=O)(=O)c2cnc3ccc(OC)cc3c2N2CCC3(CC2)OCCO3)cc1	-17%
CC(C)N(Cc1ccccc1)C(=O)COC(=O)c1ccc(O)cc1	-10%
CCN(CC)CC#CC(O)(c1ccccc1)c1ccccc1	-7%
C=CCn1c(SCC(=O)Nc2ccc(C(=O)OCC)cc2)nnc1-c1cccs1	3%
CCS(=O)(=O)/N=C(\N)c1ccccc1	13%
Cc1ccc(NC(=O)CN(C)C(=O)c2ccc(Cl)c([N+](=O)[O-])c2)cc1	-10%
CC(=O)Nc1ccc(NC(=O)c2c([N+](=O)[O-])c(C(C)(C)C)nn2C)cc1	-11%
Cc1ccc(S(=O)(=O)NCC(=O)OC(C)C(=O)NC2CCCCC2C)cc1C (stereo not given)	2%
CCN(C(=O)CN1CCCCC1)c1c(N)n(Cc2ccccc2)c(=O)[nH]c1=O	-15%
c1ccc(OCCOc2ncnc3ccccc23)cc1	-12%
O=C(NC(=S)Nc1ccccc1Br)C1CCC1	-14%
N=c1sccn1CC(=O)Nc1cccc(S(=O)(=O)N2CCCCCC2)c1	18%
COc1ccc(N(Cc2cccs2)C(=O)c2ccccc2C)cc1	5%
CC(=O)Nc1cccc(C(=O)N/N=C/c2c[nH]c3ccccc23)c1	-20%
CC(CNC(=O)c1ccc(Nc2nc3ccccc3n3nnnc23)cc1)c1ccccc1 (stereo not given)	-8%
COC(=O)/C(C#N)=C/c1cc(C)sc1C	-3%
COc1ccc(/C=C/C(=O)c2ccccc2O)cc1	?
Cc1ccc(C(C)NC(=O)/C(C#N)=C\c2c(C)[nH]c3ccccc23)cc1 (stereo not given)	?
COc1ccc(OC)c(-c2cc(C(=O)NCCc3ccccc3)c3c(-c4ccc(C)cc4)[nH]nc3n2)c1	2%
CCCCC(C)(O)C/C=C/[C@H]1[C@H](O)CC(=O)[C@@H]1CCCCCCC(=O)OC (stereo not given in full)	?
COc1cccc2c1Oc1ncccc1N(C(=O)CCC(=O)NC(C)C)C2	5%
COC(=O)c1ccc(C(=O)OC)c(NC(=S)N2CCN(c3ccccn3)CC2)c1	18%
COc1ccc(O)c(/C=N/N=C/c2cccc([N+](=O)[O-])c2)c1	-3%
Cc1ccc(C(=O)ONc2ccc(N=O)cc2)cc1	5%
CCCCNCCS(=O)(=O)NCc1ccccc1OC	-5%
CC(C)C[C@H](NC(=O)c1[nH]cnc1C(=O)Nc1ccccc1)C(=O)OC(C)(C)C	11%
CCOc1ccc(C(c2nnnn2Cc2ccccc2)N2CCN(C(=O)c3ccco3)CC2)cc1 (stereo not given)	-12%
O=C(CS(=O)(=O)c1cccc2nsnc12)NCc1ccc(Cl)cc1	7%
COc1ccc(C2=NN(C(=O)CCC(=O)O)C(c3ccc(OC)cc3)C2)cc1 (stereo not given)	9%
Cc1ccc(Cc2cnc(NC(=O)/C(C#N)=C/c3ccc(-c4cccc([N+](=O)[O-])c4)o3)s2)cc1	9%
Cc1ccccc1CS(=O)(=O)CCC(=O)NCCN1CCN(c2cccc(Cl)c2)CC1	-19%
CCCn1nnc(NC(=O)/C=C/c2ccco2)n1	10%
CC(=O)Nc1cc(-c2nc3cc(Cl)ccc3o2)ccc1C	5%
O=C(Cc1ccc([N+](=O)[O-])cc1)c1c(O)cc(O)cc1O	9%
N/C(CN1CCCC1=O)=N\OC(=O)c1ccc(Cl)cc1	-16%
CCN(CC)CCNC(=O)c1ccc(Sc2ccc(Cl)cc2)c(NC(C)=O)c1	-5%
O=C(CSc1nccn1Cc1ccco1)Nc1cc(C(F)(F)F)ccc1Cl	10%
CCN1CCCC1CN(Cc1cc2ccc(C)cc2[nH]c1=O)C(=S)Nc1ccccc1C(=O)OC (stereo not given)	12%
COc1cc2c(cc1OC)CN(C(=O)COc1ccccc1[N+](=O)[O-])CC2	-11%
